High-throughput results from PubChem BioAssay.
UUG fidelity = modulators of start codon recognition fidelity in yeast; S. cerevisiae UUG-firefly luciferase reporter, luminescence/redox ratio; activity score, % at 18.7 µM; 350,000 tested, 0.13% active; AID 602363;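 active = replicate mean at a twofold rise or more, about +100% in these data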;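 note: firefly luciferase made from a UUG start codon reports start codon fidelity; reporter light over untreated wells divided by growth signal over untreated wells; some hits fall short of that in this replicate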
MT1-MMP act inh = blocks activation of human MT1-MMP; GFP/RFP ratio change, % at 20 µM; 360,000 tested, 0.061% active; HT1080 RFP-PRO-GFP cells, GFP/RFP ratio fluorescence, overnight; percent of plate control window, DMSO zero; P50281; AID 651647;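 active = GFP/RFP ratio change of at least 30% with cell ATP level not reduced by more than half and red fluorescence within 50% of control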; note: strong numbers were not always called active
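Test system: HT1080 cells expressing an RFP-PRO-GFP fluorescent reporter construct / Compound dosing: single-point 20 µM compound, 1% DMSO / Schedule: cells overnight before dosing, compound overnight, 37 °C, 5% CO2 / Evaluation: GFP/RFP fluorescence ratio / Control set: DMSO and RFP-L50D-GFP cell wells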
CSC inhib = blocks cancer stem cells | cancer stem cell-like cells viability, luminescence | 300,000 tested, 1.1% active | inhibition, % at 7.5 µM | AID 2717;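 active = mean at 75% or more and at least half the replicates too; tested in HMLE shEcad cells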;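 note: 0% = median of negative and 100% = median of positive control wells; the first replicate is given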
eIF4H FP inh = inhibitors of RNA binding by human eIF4H; eIF4H fluorescence polarization binding assay; inhibition, % at 35 µM; 290,000 tested, 0.94% active;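 active = 50% or more with normal probe brightness, or confirmed in later tests; about a fifth of its hits are not listed in these tables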;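 note: calls also rest on retests at 20 µM and on dose response follow-up; 0% = protein and probe with vehicle and 100% = probe without protein; strong numbers were not always called active; many hits fall short of the cut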
Env fusion inh = blocks HIV Env-driven cell-cell fusion. HeLa-JRFL Env/CEM21 cell fusion, luciferase. inhibition, % at 12.3 µM. 360,000 tested, 1.1% active. AID 651610;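 active = mean replicate inhibition score of at least 50 and every replicate individually at or above 50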;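 note: 0% = plate neutral controls and 100% = maraviroc near 300 nM; one replicate is shown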
PABP FP inh = PABP-poly(A) binding inhibition. P11940. PABP-poly(A) RNA binding, fluorescence polarization. inhibition, % at 35 µM. 290,000 tested, 1% active;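 active = 50% or more with normal probe brightness, or confirmed in later tests; about a fifth of its hits are not listed in these tables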;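 note: calls also rest on retests at 20 µM and on dose response follow-up; controls were probe without protein and protein plus probe with vehicle; some compounds called inactive have numbers as strong as hits; many hits fall short of the cut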
Target sequence (P11940 whole entry, looked up): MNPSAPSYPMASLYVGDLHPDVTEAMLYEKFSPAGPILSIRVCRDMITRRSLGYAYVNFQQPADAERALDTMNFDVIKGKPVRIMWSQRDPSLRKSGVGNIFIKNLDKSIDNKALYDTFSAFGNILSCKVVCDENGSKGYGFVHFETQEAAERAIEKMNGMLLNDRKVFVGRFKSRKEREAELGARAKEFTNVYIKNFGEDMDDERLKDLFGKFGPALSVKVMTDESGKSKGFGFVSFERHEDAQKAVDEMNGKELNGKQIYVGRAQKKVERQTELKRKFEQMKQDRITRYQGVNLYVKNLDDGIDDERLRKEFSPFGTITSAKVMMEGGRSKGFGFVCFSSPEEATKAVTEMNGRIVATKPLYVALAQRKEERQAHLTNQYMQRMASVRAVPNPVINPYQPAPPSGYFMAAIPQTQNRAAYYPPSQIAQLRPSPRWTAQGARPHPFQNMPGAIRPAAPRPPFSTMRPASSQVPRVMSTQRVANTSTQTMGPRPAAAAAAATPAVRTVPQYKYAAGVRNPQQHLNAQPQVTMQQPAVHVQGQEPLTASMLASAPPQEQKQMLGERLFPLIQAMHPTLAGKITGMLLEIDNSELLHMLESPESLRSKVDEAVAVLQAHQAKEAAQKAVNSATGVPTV
Rce1 inhib = blocks yeast Ras-converting enzyme | Q03530 | yeast membranes, quenched prenylated peptide cleavage fluorescence | calls only | 290,000 tested, 0.27% active;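 active = fall in fluorescence gain of 50% or more versus controls, with final raw signal at or below 3038400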;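 note: plate controls were neutral control wells for no effect and wells lacking membranes for full effect; tested at 10 µM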
Target sequence (Q03530 whole entry, looked up): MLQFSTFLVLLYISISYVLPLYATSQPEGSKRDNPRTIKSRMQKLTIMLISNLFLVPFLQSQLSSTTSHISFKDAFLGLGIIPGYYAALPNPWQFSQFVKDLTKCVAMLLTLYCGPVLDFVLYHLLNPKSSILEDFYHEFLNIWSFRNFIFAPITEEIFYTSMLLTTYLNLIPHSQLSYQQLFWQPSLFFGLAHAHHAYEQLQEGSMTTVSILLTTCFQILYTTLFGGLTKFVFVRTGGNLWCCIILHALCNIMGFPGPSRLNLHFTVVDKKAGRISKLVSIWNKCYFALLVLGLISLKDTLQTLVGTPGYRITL
MT1-MMP act inh RFP = also measured in MT1-MMP act inh; calls as there; RFP signal change, %; measured here: RFP expression control read;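 0 = vehicle wells; hits needed this value within 50% of zero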
Starred values were filed as active, the others as inactive; i = inactive; . = not tested or not shown; + = active, no number. Only part of the results is shown; rates above refer to the full screens.

SMILES	UUG fidelity	MT1-MMP act inh	MT1-MMP act inh RFP	CSC inhib	eIF4H FP inh	Env fusion inh	PABP FP inh	Rce1 inhib
COc1cnn(-c2cccc(C(F)(F)F)c2)c(=O)c1Cl	-7	5	1	-4	.	9	.	i
O=C1ON=C(c2ccccc2)/C1=C/c1ccccc1	-18	-1	0	-1	-2	-36	0	i
COCCNC(=O)CN(c1ccc(C)cc1)S(=O)(=O)c1ccccc1	.	-1	4	.	-1	.	-1	i
COc1cc2ccc(C(=O)O)cc2cc1OC	-6	-2	1	.	.	13	.	.
COC(=O)c1ccccc1NC(=O)NCc1cccnc1	2	3	7	-6	-8	-13	-9	+
C=CC1=C2C=C(C3CC3)N(C3CC3)C=C2C(=O)C(C)(OC(=O)c2ccco2)C1=O (centres undefined)	1	-9	2	-2	.	-49	.	i
CC/C(C)=N/Nc1ccc(S(=O)(=O)N2CCCC2)cc1[N+](=O)[O-]	-8	18	-3	-5	5	.	-9	i
O=C(Nc1nnc(C2CCCC2)s1)C1CCC1	-16	-8	-1	-6	-8	.	4	i
O=C(Nc1ccc2c(c1)OCO2)C1CC1	-5	0	1	0	.	.	.	.
OC(c1ccc(F)cc1)c1nc(-c2cnc3ccccc3c2)cs1 (centres undefined)	-27	2	-6	.	.	-30	.	.
Cc1cc(NCC(c2ccccc2)c2ccccc2)n2ncnc2n1	-12	-2	-2	25	1	-1	4	i
CCOC(=O)C1CCCN(C(=O)c2ccc3[nH]c4c(c3c2)CC(C)CC4)C1 (centres undefined)	-8	7	6	-1	.	7	.	.
O=C(c1ccc(-n2cncn2)c([N+](=O)[O-])c1)N1CCN(S(=O)(=O)c2ccc(F)c(F)c2)CC1	0	1	-2	6	.	9	.	i
O=C(c1cccnc1)N1CCCc2ccccc21	-34	-1	-1	-8	4	21	-5	i
CCn1nc(C(=O)Nc2cc(Cl)ccc2-n2cncn2)c2ccccc2c1=O	-5	-6	-1	-6	.	-3	.	i
Cc1ccc(NC(=O)NNC(=O)COc2ccc([N+](=O)[O-])cc2)cc1C	-13	9	3	3	-4	.	-10	i
CC(=O)c1cccc(N(C(=O)c2cnccn2)C(C(=O)NCc2ccccc2)c2ccco2)c1 (centres undefined)	.	-3	-1	-11	8	-46	3	i
COc1ccc(C(=O)Nc2nc3cc(OC)c(OC)cc3c(=O)[nH]2)cc1	-7	0	-8	3	-7	-100	-8	.
O=C(OCc1ccc(Cl)cc1)c1cnccn1	-6	1	11	-18	-1	-8	7	i
CCc1c(O)nc(SCC(=O)Nc2ccc3c(c2)CCC3)[nH]c1=O	-10	-3	-3	-1	-2	.	-3	i
CCCCN(N=Nc1nonc1OC)c1nonc1OC	-24	6	0	10	-3	.	-9	i
CC(=O)N1C(=O)/C(=C2\SC(=S)N(c3c(C)n(C)n(-c4ccccc4)c3=O)C2=O)c2ccccc21	.	-5	-1	2	-3	18	10	i
COC(=O)c1cc(-c2ccc(OC)cc2)on1	-11	1	5	-8	0	-4	-2	i
COc1ccc(CCNC(=O)/C=C\c2ccccc2)cc1OC	-1	-2	-3	0	-8	-1	5	i
CCOc1ccccc1N(C(=O)CNS(=O)(=O)c1ccccc1)C(CC)C(=O)NCc1ccco1 (centres undefined)	-12	-4	2	-11	-2	.	-2	i

Continuation:
SMILES	UUG fidelity	MT1-MMP act inh	MT1-MMP act inh RFP	CSC inhib	eIF4H FP inh	Env fusion inh	PABP FP inh	Rce1 inhib
O=C(CN1C(=O)NC2(CCCC2)C1=O)OCCOc1ccc(Br)cc1	-8	1	3	-5	.	11	.	i
Cc1c(OCC(=O)N2C[C@H]3C[C@@H](C2)c2cccc(=O)n2C3)ccc2c3c(c(=O)oc12)CCC3	-21	5	3	-1	-3	.	3	i
CSCCC(NC(=O)c1ccco1)C(=O)NC1CCCCCC1 (centres undefined)	.	5	1	7	.	5	.	i
CN(CC(=O)Nc1ccccc1Cl)C(=O)COC(=O)c1nc(Cl)ccc1Cl	.	0	1	-15	.	1	.	i
O=C(CN1CCN(c2ncc(C(F)(F)F)cc2Cl)CC1)NC(=O)NCc1ccccc1	-4	2	-6	-7	5	12	17	.
COc1ccccc1N1CC(C(=O)Nc2nnc(SCC(=O)N3CCCC3)s2)CC1=O (centres undefined)	-19	0	3	-5	-7	-2	-2	i
Cn1cc(Cl)c(C(=O)Nc2nccs2)n1	.	1	-5	0	-1	3	-7	i
CCCNC(=O)Cn1c(=O)oc2cc(S(=O)(=O)N3CCCC3)ccc21	-14	-1	6	3	-10	-6	-6	i
Cc1[nH]nc(-c2ccc(OCc3cnn(-c4ccccc4)c3)cc2O)c1Oc1ccccc1F	-9	8	-5	2	-1	.	-4	i
S=C(Nc1ccccc1)N1CCn2cccc2C1c1cccnc1 (centres undefined)	.	1	3	-19	2	-2	-17	i
O=C(CCc1c[nH]c2ccccc12)NCCc1ccc(O)cc1	-2	3	1	0	-7	10	5	i
Nn1c(SCC(=O)Nc2ccc3c(c2)CCC3)nnc1C1CC1	-6	6	2	-6	.	-77	.	.
O=S(=O)(NCCC1=CCCCC1)c1ccc(Br)cc1	-10	-1	6	-4	-9	-3	-12	.
C/C(=C\C1CCCCC1)C(NC(=O)c1ccc(C(F)(F)F)cc1)c1ccc(-c2ccccc2)cc1 (centres undefined)	-22	-6	-4	-15	.	-4	.	i
COc1ccccc1CNC(=O)COC(=O)CCN1C(=O)C2CC=CCC2C1=O (centres undefined)	-5	0	0	.	.	-4	.	.
CCOc1ccc(N(CCC#N)S(=O)(=O)c2ccc(OC)cc2)cc1	.	-1	-6	4	-13	3	5	i
CN(C)CCCN(C(=O)c1nc2ccccc2s1)c1nc2ccc(F)cc2s1	-15	3	7	1	.	-8	.	i
O=c1cc(CN2CCOCC2)c2cc(Cl)c(O)cc2o1	1	0	0	-7	18	-2	7	i
OCCCNc1nc(-c2ccccc2)c2cc(Cl)ccc2n1	-11	-4	-1	-9	.	0	.	i
CCOc1cccc(C(=O)Nc2ccc3[nH]ncc3c2)c1	-71	2	-3	4	-10	-50	-6	i
COc1cc2ccccc2cc1C(=O)NNC(=O)c1ccccc1O	-13	5	0	13	5	23	0	i
C=CCSc1nc(-c2ccccc2)c2cc(Cl)ccc2n1	.	3	1	-19	-4	.	-1	i
COc1ccccc1CNC(=O)c1ccccc1C(=O)NC(CC(C)C)C(=O)NCc1ccccc1OC (centres undefined)	-13	-5	-3	-11	.	5	.	i
Cc1cnc(C)c(N(C)NC(=S)Nc2ccccc2)n1	.	-2	-1	-45	-13	.	-3	i
O=C(/C=C/c1cccc(Br)c1)NCc1ccncc1	-1	2	6	-1	-7	-14	-13	i

Arranged by value in Env fusion inh (smallest number first): four from the list above.
Molecule,Env fusion inh
O=C(/C=C/c1cccc(Br)c1)NCc1ccncc1,-14
CCCNC(=O)Cn1c(=O)oc2cc(S(=O)(=O)N3CCCC3)ccc21,-6
CCOc1ccc(N(CCC#N)S(=O)(=O)c2ccc(OC)cc2)cc1,3
O=C(CCc1c[nH]c2ccccc12)NCCc1ccc(O)cc1,10

Looked up by structure from the entries so far:
SMILES	UUG fidelity	MT1-MMP act inh	MT1-MMP act inh RFP	CSC inhib	eIF4H FP inh	Env fusion inh	PABP FP inh	Rce1 inhib
OCCCNc1nc(-c2ccccc2)c2cc(Cl)ccc2n1	-11	-4	-1	-9	.	0	.	i
CN(C)CCCN(C(=O)c1nc2ccccc2s1)c1nc2ccc(F)cc2s1	-15	3	7	1	.	-8	.	i
O=S(=O)(NCCC1=CCCCC1)c1ccc(Br)cc1	-10	-1	6	-4	-9	-3	-12	.
CCOc1cccc(C(=O)Nc2ccc3[nH]ncc3c2)c1	-71	2	-3	4	-10	-50	-6	i
C=CCSc1nc(-c2ccccc2)c2cc(Cl)ccc2n1	.	3	1	-19	-4	.	-1	i
COc1ccccc1N1CC(C(=O)Nc2nnc(SCC(=O)N3CCCC3)s2)CC1=O (centres undefined)	-19	0	3	-5	-7	-2	-2	i

Individual results from the entries so far.
`COc1ccccc1N1CC(C(=O)Nc2nnc(SCC(=O)N3CCCC3)s2)CC1=O` (centres undefined) @ PABP FP inh: -2
`CCOc1cccc(C(=O)Nc2ccc3[nH]ncc3c2)c1` @ MT1-MMP act inh: 2
`O=C(CN1C(=O)NC2(CCCC2)C1=O)OCCOc1ccc(Br)cc1` @ MT1-MMP act inh: 1
`CCCNC(=O)Cn1c(=O)oc2cc(S(=O)(=O)N3CCCC3)ccc21` @ eIF4H FP inh: -10
`CSCCC(NC(=O)c1ccco1)C(=O)NC1CCCCCC1` (centres undefined) @ Env fusion inh: 5

(continued)
SMILES	UUG fidelity	MT1-MMP act inh	MT1-MMP act inh RFP	CSC inhib	eIF4H FP inh	Env fusion inh	PABP FP inh	Rce1 inhib
O=c1c2ccccc2[nH]c(=S)n1C1CCCCC1	-7	3	1	-5	-7	.	-2	i
COC(CNC(=O)c1ccc(CS(=O)(=O)c2ccc(Br)cc2)o1)OC	-10	4	1	-2	12	2	-7	i
COc1ccc2c(c1)O[C@H](c1ccc3c(c1)OCO3)[C@@H](OC(=O)Nc1cc(OC)c(OC)c(OC)c1)C2=O	.	.	.	-20	-2	.	-3	i
Cc1ccc(C(=O)N/C(=C/c2ccco2)C(=O)NCCc2c[nH]c3ccccc23)cc1	.	-2	-3	-6	-5	9	-11	i
COc1ccc(CCNC(=O)c2cnc(C)cn2)cc1	-2	5	5	-1	-7	-70	6	i
CCN1CCN(Cc2ccc(NC(=O)c3cc(NC(=O)c4nccnc4N)cc(OC)c3)cc2C(F)(F)F)CC1	-11	-6	-6	-16	-8	-20	3	i
CCOC(=O)N1CCN(C(=O)CCc2ccc(S(=O)(=O)NCCc3ccccc3)cc2)CC1	-7	-2	-2	-6	13	.	9	i
COc1cccc(N2CCN(C(=O)c3cc4cc(Cl)ccc4[nH]3)CC2)c1	-9	-1	4	45	-7	-8	7	i
C=CCN(c1ccccc1)S(=O)(=O)c1ccc(Cl)c(C(=O)OCC(=O)NCCCN2CCCC2=O)c1	-6	1	0	-12	5	1	4	i
COc1ccc(CCNC(=O)CSc2n[nH]c(C)c2[N+](=O)[O-])cc1OC	.	1	1	-19	-5	-12	-10	i
Cc1cccc(NC(=S)NCCN(C2CCCCC2)C2CCCC2)c1	-16	-4	-1	6	-1	-13	4	i
CCCC(=O)Nc1cccc(NC(=S)NC(=O)C(C)Oc2ccc(Cl)cc2Cl)c1 (centres undefined)	-18	6	7	18	3	-6	34	i
CSc1nnc(CSc2cc(C)nc(N(C)C)n2)o1	-4	2	10	-8	3	5	-3	i
CCCn1c(N)c(C(=O)CSc2n[nH]c(-c3ccccc3F)n2)c(=O)n(C)c1=O	-19	1	-7	.	.	-11	.	.

Ordered by length of the SMILES (rising): part of the list above
SMILES	UUG fidelity	MT1-MMP act inh	MT1-MMP act inh RFP	CSC inhib	eIF4H FP inh	Env fusion inh	PABP FP inh	Rce1 inhib
COc1ccc(CCNC(=O)c2cnc(C)cn2)cc1	-2	5	5	-1	-7	-70	6	i
C=CCN(c1ccccc1)S(=O)(=O)c1ccc(Cl)c(C(=O)OCC(=O)NCCCN2CCCC2=O)c1	-6	1	0	-12	5	1	4	i
CCN1CCN(Cc2ccc(NC(=O)c3cc(NC(=O)c4nccnc4N)cc(OC)c3)cc2C(F)(F)F)CC1	-11	-6	-6	-16	-8	-20	3	i
